# Assay outcomes (PubChem BioAssay)
# KCNQ2 inh = KCNQ2 potassium channel inhibitors, primary screen, cell-based, CHO-K1, FluxOR thallium flux, B-score (AID 2156); 20 min; hits give low values; only compounds with negative scores are shown here; some inactives read as strong as hits; B-score at 10 µM; actives 1.1% (n = 310,000);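 active = fluorescence ratio B-score at most minus 3 library SDs, with starting brightness B-score within 2 library SDs, cut at about -5.5 in these data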
# Target sequence (O88943 whole entry, looked up): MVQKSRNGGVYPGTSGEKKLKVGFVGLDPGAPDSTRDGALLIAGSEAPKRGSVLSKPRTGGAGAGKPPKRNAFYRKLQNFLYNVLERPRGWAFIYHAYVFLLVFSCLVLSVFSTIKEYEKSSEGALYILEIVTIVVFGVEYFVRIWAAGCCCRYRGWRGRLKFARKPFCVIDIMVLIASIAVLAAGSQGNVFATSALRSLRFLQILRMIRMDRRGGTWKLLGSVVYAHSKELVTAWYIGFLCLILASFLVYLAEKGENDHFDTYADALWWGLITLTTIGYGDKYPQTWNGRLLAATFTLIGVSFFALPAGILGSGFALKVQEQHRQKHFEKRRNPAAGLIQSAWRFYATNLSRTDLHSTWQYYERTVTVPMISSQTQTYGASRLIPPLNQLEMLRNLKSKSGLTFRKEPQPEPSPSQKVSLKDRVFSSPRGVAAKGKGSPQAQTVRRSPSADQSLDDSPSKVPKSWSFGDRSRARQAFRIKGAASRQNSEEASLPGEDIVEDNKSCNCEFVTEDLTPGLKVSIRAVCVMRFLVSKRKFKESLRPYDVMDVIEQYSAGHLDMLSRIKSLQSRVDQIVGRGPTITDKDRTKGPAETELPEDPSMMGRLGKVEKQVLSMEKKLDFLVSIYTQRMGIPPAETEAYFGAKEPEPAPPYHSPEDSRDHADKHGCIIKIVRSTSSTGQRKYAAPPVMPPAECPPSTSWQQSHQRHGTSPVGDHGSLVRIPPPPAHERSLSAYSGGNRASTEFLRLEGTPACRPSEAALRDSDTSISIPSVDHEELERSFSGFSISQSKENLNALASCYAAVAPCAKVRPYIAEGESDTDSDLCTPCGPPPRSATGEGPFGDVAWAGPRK
# KCNQ2 inh baseline = also measured in KCNQ2 inh; calls as there; B-score; measured here: initial fluorescence intensity artifact check;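 brightness before thallium and not channel activity; 0 = typical well and far values either way flag optical interference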
# * hit, by the source's call; i = inactive. This is a subset (hit frequency here may not be typical).
SMILES,KCNQ2 inh,KCNQ2 inh baseline
O=C(C1=C[C@@H](c2csc3ccccc23)C[C@@H](OCc2ccc(CO)cc2)O1)N1CCOCC1,i,-1.8
CC(C)CC(=O)NCCc1ccncc1,i,0.2
Cc1ccc(Nc2nnc(SCC(=O)NC3CCCc4ccccc43)s2)cc1 (configuration not stated),i,-1.3
CC(C)(CO)NS(=O)(=O)c1ccc2c(c1)Cc1cc(S(=O)(=O)NC(C)(C)CO)ccc1-2,i,0.89
CC(C)Oc1ccc(C(=O)N2CCCc3ccccc32)cc1,i,-0.76
O=C(O)CCCC(=O)N(Cc1ccccc1)Cc1ccccc1,i,-0.14
Oc1ccc(Br)cc1CNc1ccccn1,i,-0.27
CCN(Cc1nc(-c2cccc(C)c2)no1)C(=O)c1ccc2c(c1)OCO2,i,-0.73
Cc1c(CCCC(=O)O)sc(N)c1C(=O)c1cccc(C(F)(F)F)c1,i,1.7
COc1ccc(OC)c(S(=O)(=O)NC2CC(=O)N(c3cccc(F)c3)C2)c1 (configuration not stated),i,0.24
CCC(c1nnnn1C1CCCC1)N1CCC(C(N)=O)CC1 (configuration not stated),i,1.1
Cc1cccc2nc(CSc3nc4ccccc4o3)cn12,i,-2.3
Cc1cccc(CSC2=CS(=O)(=O)c3ccccc3N2)c1,i,-0.05
O=C(O)c1c[nH]c(=O)c2ccccc12,i,-0.15
CCOC(=O)CNC(=O)CSc1nc(-c2ccc(OC)cc2)ns1,i,0.7
COc1cc(C(=O)Nc2cccc(-n3cnnn3)c2)cc(Cl)c1OC,i,-0.58
O=C(CNC(=S)N(CCCN1CCOCC1)Cc1cccs1)NCc1ccc(Cl)cc1,i,-0.04
COc1ccc(N2CCN(CC(=O)c3ccc(Cl)cc3)CC2)cc1,i,2.5
O=C(c1ccco1)N1CCN(c2nc(C(F)(F)F)nc3c2nnn3Cc2ccccc2)CC1,i,-0.03
Cn1c(NCc2ccccc2Cl)nc2ccccc21,i,0.73
CCN1CCc2nc3sc(C(=O)N4CCc5ccccc5C4)c(N)c3cc2C1,i,-0.02
Cc1ccc(NC(=O)C2CCCN2S(=O)(=O)c2cccc3cccnc23)c(C)c1 (configuration not stated),i,0.54
COc1ccc(OC)c(C(=O)Cn2nnc3ccccc3c2=O)c1,i,0.8
Cc1c(C(=O)N2CCc3ccccc3C2)oc2ccc(S(=O)(=O)N3CCCCCC3)cc12,i,-0.56
C=CCOC(=O)C1=C(C)NC2(O)c3ccccc3C(=O)C12O (configuration not stated),i,0.13
O=C(O)CC1(CC(=O)Nc2ccccc2N2CCOCC2)CCCC1,i,-1.1
Cc1cc(NCCCO)n2c(nc3ccccc32)c1C#N,i,0.22
COC(=O)c1ccc(C(=O)Nc2ccc3c(c2)C(=O)NC3=O)cc1,i,0.68
Cc1c(C(=O)N/N=C/c2cccs2)nc2ccccn12,i,1.3
Nc1cccc2c1nnn2C1OC(CO)C(O)C(O)C1O (configuration not stated),i,0.78
CNC(=O)Nc1cccc(-c2ccnc(C)n2)c1,i,1.5
CCOC(=O)c1c(NC(=O)C2CCCCC2)sc2c1CCN(CC)C2,i,0.82
CCN(CC)C(=O)c1sc2nc(-c3ccccc3)ccc2c1N,i,0.03
Cc1c(NC(=O)C2CCCN2S(=O)(=O)c2ccc(Cl)cc2)c(=O)n(-c2ccccc2)n1C (configuration not stated),i,0.13
CC1CC(=O)N(CC(=O)Nc2cccc(Cl)c2)c2ccccc2S1(=O)=O (configuration not stated),i,0.85
COc1cc2[nH]c(C(=O)N3CCC(Cc4ccccc4)CC3)cc2c(OC)c1OC,i,-1.1

# Compound profiles (already shown). Screens in order: KCNQ2 inh, KCNQ2 inh baseline
# CCN(CC)C(=O)c1sc2nc(-c3ccccc3)ccc2c1N as listed: i, 0.03
# Cc1c(NC(=O)C2CCCN2S(=O)(=O)c2ccc(Cl)cc2)c(=O)n(-c2ccccc2)n1C (configuration not stated) as listed: i, 0.13
# Nc1cccc2c1nnn2C1OC(CO)C(O)C(O)C1O (configuration not stated) as listed: i, 0.78
# C=CCOC(=O)C1=C(C)NC2(O)c3ccccc3C(=O)C12O (configuration not stated) as listed: i, 0.13
# Cc1cc(NCCCO)n2c(nc3ccccc32)c1C#N as listed: i, 0.22

# Continued.
SMILES,KCNQ2 inh,KCNQ2 inh baseline
CC(=O)c1ccc(NS(=O)(=O)c2ccc(-c3cnc(C4CC4)o3)cc2)cc1,i,0.21
COc1cc(-c2nc(-c3ccccc3)c(-c3cccs3)[nH]2)cc(OC)c1OC,i,1.5
CNC(=O)C1=C(C)NC(=S)NC1c1cc2c(cc1OC)CCCC2 (configuration not stated),i,-1
COc1ccccc1C(=O)Nc1ccccc1N1CCCCC1,i,-0.96
O=C(Nc1ccc(F)c(F)c1)c1cccnc1,i,0.6
CC(C)Cn1cc(C(=O)N2CCN(c3ccccn3)CC2)c2c3ccccc3n(C)c2c1=O,-5.7*,0.99*
CS(=O)(=O)n1nc(-c2ccccc2)nc1NCc1ccco1,i,-2
CN(C)S(=O)(=O)c1ccc(Cl)c(NC(=O)COC(=O)C2CCCO2)c1 (configuration not stated),i,1.9
Cc1ccc(C(=O)Nc2cccc(NC(=O)CN3CCCCC3)c2)cc1,i,0.02
C/C=C/c1ccc(OCCOc2cccc3cccnc23)c(OC)c1,i,-0.42
CCSc1nnc(-c2ccc(S(=O)(=O)N3CCOCC3)cc2)n1C,i,-0.09
CC(=O)c1cccc(NC(=S)NC(=O)c2ccc(C)cc2Cl)c1,i,-0.69
CCCCOC(=O)c1ccc(NC(=O)CSc2nnnn2C)cc1,i,-0.64
COc1ccc(/C=C/c2nc(C)c(-c3ccccc3)c(=O)[nH]2)cc1OC,i,4.1
CCN1CCN(Cc2ccc(OCc3ccccc3)c(OC)c2)CC1,i,0.92
CCOC(=O)N1CCN(C(c2cccc(OC)c2)c2sc3nc(C)nn3c2O)CC1 (configuration not stated),i,-0.88
CS(=O)(=O)N(Cc1ccccc1)c1ccc(C(=O)NCCSCc2ccco2)cc1,i,-0.04
CC(C)OP(=O)(OC(C)C)C1(O)C(=O)Nc2ccccc21 (configuration not stated),i,-1.9
Cc1c(N/C=C/C(=O)c2ccc(Cl)cc2)c(=O)n(-c2ccccc2)n1C,i,0.28
Cc1nc(N2CCN(C(=O)c3ccco3)CC2)[nH]c(=O)c1C,i,0.41
CN(C)CCCNC(=S)Nc1ccc(Oc2ccccc2)cc1,i,0.05
COc1ccc(NC(=O)c2sc3nc(N4CCOCC4)c4c(c3c2N)CC(C)(C)OC4)cc1,i,-0.02
C=CCN(CC=C)S(=O)(=O)c1ccc(C(=O)Nc2nnc(CSC)o2)cc1,i,-0.78
O=C(CCCn1c(SCC(=O)c2ccc(F)cc2)nc2ccccc2c1=O)NCc1ccccc1,i,-0.35
O=C(CN1CCCCCC1)Nc1ccc([N+](=O)[O-])cc1Cl,i,1.9
COc1ccc(O)c(/C=N/NC(=O)c2ccc(OCc3cccc(Br)c3)cc2)c1,i,0.69
Cc1ccc2c(c1)-c1c(cnn1CC(=O)Nc1ccccc1N1CCN(C)CC1)CO2,i,-0.03
CCN(CC)S(=O)(=O)c1ccc(C)c(NC(=S)Nc2cccc(S(=O)(=O)N3CCCCCC3)c2)c1,i,1.4
O=C(/C=C/c1ccco1)NC(=S)Nc1ccccc1N1CCOCC1,-7.2*,-0.32*
COc1ccc(NS(=O)(=O)c2cc(NC(=O)CCSc3ccccc3)ccc2OC)cc1,i,-0.39
CCC(Oc1ccc(Br)cc1)C(=O)N1CCN(c2ncccn2)CC1 (configuration not stated),i,1.4
COC(=O)C(OC(=O)c1ccc(OC)cc1)C(=O)OC,i,0.01
Nc1cccc(NC(=O)c2ccco2)c1,i,-0.39
COc1cccc(-c2nn(C)c3sc(C(=O)Nc4ccc5c(c4)OCCO5)cc23)c1,i,0.36
Cc1ccc(-c2nc3[nH]c(=O)cc(NC(=O)c4cccs4)n3n2)cc1,i,-0.27
Cc1noc(C)c1CN1C(=O)NC(Cc2ccccc2)(Cc2ccccc2)C1=O,i,1.9
COc1cc2c(cc1NC(=O)CSc1nnc(Cc3cccs3)n1C)oc1ccccc12,i,-1.9
CCC(C)C(=O)Nc1ccccc1N1CCN(c2ccc(F)cc2)CC1 (configuration not stated),i,2
CCC1CN(C(=O)NCc2ccc(F)cc2)c2cc(C)ccc2O1 (configuration not stated),i,-0.36
O=C(OCC(=O)N1CCCc2ccccc21)c1cc(Cl)ccc1O,i,-1.5
COc1ccccc1-n1c(-c2ccc(NS(C)(=O)=O)cc2)n[nH]c1=S,i,-0.37
O=C1CC(N2CCN(Cc3ccccc3)CC2)C(=O)N1c1ccc2c(c1)OCCO2 (configuration not stated),i,0.8
COc1cc(/C=N/NC(=S)Nc2cccc(C(=O)O)c2)cc(OC)c1OC,i,0.42
CCN1C(=O)[C@@H]2[C@@H](c3ccc(-c4ccc5c(c4)OCO5)cc3)N3CCCC[C@@]3(C(=O)OC)[C@@H]2C1=O,i,0.03
COc1ccc(C(=O)NNS(=O)(=O)c2ccccc2)cc1,i,1.4
Cc1c(O)cc2c(c1O)C(=O)CC(c1ccccc1)O2 (configuration not stated),i,0.51
Cc1ccc2c(c1)/C(=C/c1ccccc1F)C(=O)N2,i,2
CCOC(=O)c1ccc(NS(=O)(=O)c2cn(C)cn2)cc1,i,1.7
C[C@]12C(=O)N(c3ccc(F)cc3)C(=O)N1[C@@H]1c3ccccc3OC[C@@H]1[C@H]2c1ccccc1,i,-1.9
COc1ccc(C2=NN(C(=O)CCC(=O)O)C(c3cccs3)C2)cc1 (configuration not stated),i,0.97
Cc1nc(Cl)c(C(=O)Nc2cccc(F)c2)c(C)c1Cl,i,-0.99
COc1ccc2ccccc2c1C1CC(=O)N2CN(C3CCCCC3)CSC2=C1C#N (configuration not stated),i,0.43
COc1cc(CC(=O)NCc2cccs2)cc(OC)c1OC,i,-0.67
CCOc1ccccc1NC(=O)COC(=O)Cc1ccc(-c2ccccc2)cc1,i,0.45
Cc1ccc(C(C(=O)NC2CCCC2)N(Cc2ccco2)C(=O)CCC(=O)Nc2ccccn2)cc1 (configuration not stated),i,-0.03
O=C(CN1CCCC1)Nc1nc(-c2ccc3c(c2)CCN3C(=O)c2ccccc2F)cs1,i,-2
CC(C)c1onc(C(=O)N2CCN(C(c3ccccc3)c3ccccc3)CC2)c1[N+](=O)[O-],i,-0.5
O=C(NCC1CCCCC1)c1cc(Br)ccc1Cl,i,0.22
CC(C)(C)NC(=O)CSCc1c(Cl)cccc1Cl,i,-1.5
O=C(NCC1CCCO1)C(c1cccs1)N(Cc1ccccc1)C(=O)c1ccc(-c2ccccc2)[nH]1 (configuration not stated),i,-0.02

# Random excerpt: 5 entries already listed, in no set order.
SMILES,KCNQ2 inh,KCNQ2 inh baseline
O=C(NCC1CCCO1)C(c1cccs1)N(Cc1ccccc1)C(=O)c1ccc(-c2ccccc2)[nH]1 (configuration not stated),i,-0.02
CCOc1ccccc1NC(=O)COC(=O)Cc1ccc(-c2ccccc2)cc1,i,0.45
COc1ccc(C2=NN(C(=O)CCC(=O)O)C(c3cccs3)C2)cc1 (configuration not stated),i,0.97
COc1ccc2ccccc2c1C1CC(=O)N2CN(C3CCCCC3)CSC2=C1C#N (configuration not stated),i,0.43
Cc1nc(Cl)c(C(=O)Nc2cccc(F)c2)c(C)c1Cl,i,-0.99

# The listing continues:
SMILES,KCNQ2 inh,KCNQ2 inh baseline
COc1ccc2nc(NC(=O)CN(c3ccc(C)cc3)S(=O)(=O)c3c(C)nn(C)c3C)sc2c1,i,0.29
COc1ccc2nc(NNC(=O)C3COc4ccccc4O3)sc2c1 (configuration not stated),i,0.29
CCn1c(O)c(/C=N/N=C/c2ccccc2)c2ccc(C3=NNC(=O)CC3)cc21,i,1.8
Cc1cc(CNC(=O)COc2ccccc2)c2ccccc2n1,i,-0.95
Cc1csc(=O)n1CCC(=O)OCC(=O)NCc1ccc(Cl)cc1Cl,i,-0.55
COc1cccc(-n2nc(C(=O)N3CC(C)CC(C)C3)c3ccccc3c2=O)c1 (configuration not stated),i,1.6
O=C(Nn1cnnc1)c1ccccc1Cl,i,-0.55
c1ccc(Cc2nnc(N3CCCCC3)c3ccccc23)cc1,i,-1.5
CCCCc1cc(C)c(S(=O)(=O)c2ccccc2C)c(=O)[nH]1,i,0.62
Fc1ccccc1CNc1nc(-c2cccnc2)nc2ccccc12,i,2.8
COCCCn1c(SCc2ccc(OC)cc2)nc2cc(OC)c(OC)cc2c1=N,i,0.24
Cc1ccnc(NC(=O)c2cccc(NC(=O)COc3ccccc3)c2)c1,i,-3.5
CCCCNC1C(CC)C(CCC)C(C#N)(C#N)C1(C#N)C#N (configuration not stated),i,0.17
O=C(CCOc1ccccc1)OCC(=O)c1cc2ccccc2o1,i,-0.3
COc1ccc(C(C)=O)cc1CSCCC(=O)O,i,-0.12
COCCCN1C(=O)C2C(C(=O)Nc3cccc(Cl)c3)C3C=CC2(O3)C1C(=O)NC1CCCCC1 (configuration not stated),i,0.07
COc1cccc(C2/C(=C(\O)c3ccc4c(c3)OCCO4)C(=O)C(=O)N2c2nnc(C)s2)c1 (configuration not stated),i,0.21
CCOC(=O)C1CCN(S(=O)(=O)c2cccc3nonc23)CC1,i,0.42
CCOc1ccc(CCNC(=O)C2CCN(S(=O)(=O)c3ccc(C)cc3)CC2)cc1OCC,i,-0.5
Cc1cc(NS(C)(=O)=O)c(=O)n(Cc2cccc(F)c2)c1,i,0.69
CCC(C(=O)OCC(=O)N(C)c1c(N)n(Cc2ccccc2)c(=O)[nH]c1=O)c1ccccc1 (configuration not stated),i,1.2

# Copied from the list.
# Reading for `COc1ccc2nc(NC(=O)CN(c3ccc(C)cc3)S(=O)(=O)c3c(C)nn(C)c3C)sc2c1` in KCNQ2 inh baseline: 0.29
# Reading for `COc1cccc(C2/C(=C(\O)c3ccc4c(c3)OCCO4)C(=O)C(=O)N2c2nnc(C)s2)c1` (configuration not stated) in KCNQ2 inh baseline: 0.21
# Reading for `CC(=O)c1cccc(NC(=S)NC(=O)c2ccc(C)cc2Cl)c1` in KCNQ2 inh baseline: -0.69
# Reading for `CCN(CC)C(=O)c1sc2nc(-c3ccccc3)ccc2c1N` in KCNQ2 inh baseline: 0.03
# Reading for `CCC1CN(C(=O)NCc2ccc(F)cc2)c2cc(C)ccc2O1` (configuration not stated) in KCNQ2 inh baseline: -0.36
